Source: PubChem BioAssay (ICCB-Longwood Screening Facility, Harvard Medical School)
UCH37 DUB inh = inhibitors of human UCH37 deubiquitinase, primary screen, biochemical, Ub-AMC cleavage, fluorescence; Ubiquitin carboxyl-terminal hydrolase isozyme L5 (Homo sapiens), Q9Y5K5; purified proteasome/UCH37; inhibition, % (concentration not given with the values); hit rate 0.33% among 330,000; AID 588478, 2011;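 active means mean of two replicates above 20%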;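 further: 0% = compound-free wells with enzyme and 100% = wells lacking proteasome; stock transfer was 100 nL into about 20 µL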
Target sequence (Q9Y5K5 whole entry, looked up): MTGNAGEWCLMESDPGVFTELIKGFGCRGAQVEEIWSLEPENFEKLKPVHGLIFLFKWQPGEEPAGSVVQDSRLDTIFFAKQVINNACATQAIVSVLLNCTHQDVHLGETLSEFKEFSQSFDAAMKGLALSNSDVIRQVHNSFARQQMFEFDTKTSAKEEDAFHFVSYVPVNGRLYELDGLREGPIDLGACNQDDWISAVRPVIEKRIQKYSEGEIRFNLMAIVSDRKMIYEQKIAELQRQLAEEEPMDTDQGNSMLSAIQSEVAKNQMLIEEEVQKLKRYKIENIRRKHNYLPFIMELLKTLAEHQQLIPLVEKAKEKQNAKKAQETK
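assay system = human UCH37 enzyme supplied as purified proteasome complex | amount = proteasome at 0.15 nM in the dispensed enzyme solution | schedule = 30 min compound-proteasome preincubation then 25 min substrate reaction, room temperature | measured by = fluorescence, ex 355 nm, em 460 nm | benchmarks = no-proteasome wells (full inhibition) and compound-free wells (no inhibition)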
* hit, by the source's call.

structure,UCH37 DUB inh
Cn1c(=O)c2c(nc(NN=Cc3cccnc3)n2Cc2ccccc2)n(C)c1=O,10
O=C(ON=C1CCCc2occc21)c1ccc(F)cc1,-0.7
COC(=O)/C=C1\S/C(=N\N=CCC(=O)OC)NC1=O,14
O=C(O)c1cc(NN=Cc2cccc3ccccc23)ccc1Cl,0.2
O=[N+]([O-])c1ccc(NN=Cc2cccs2)nc1,-0.2
NC(N)=NN=Cc1ccc2cccc(OCc3ccccc3)c2n1,-128
CC(C)c1ccc(C=NNC(=O)c2ccc(-n3cnnn3)cc2)cc1,-1.0
COc1ccc(C(C)=NNC(=O)c2ccc(N(C)C)cc2)cc1,3.7
CC(=NNC(=O)c1cccc(S(=O)(=O)Nc2ccccc2Cl)c1)c1ccc(-n2ccnc2)cc1,1.7
Cc1c(C(=O)O)cccc1-n1c(C)cc(C=NNc2ccc([N+](=O)[O-])cn2)c1C,15
O=[N+]([O-])c1cc(Cl)cc(C=NNc2ccccn2)c1O,1.4
CC(Oc1cccc2cccnc12)C(=O)NN=Cc1ccc2c(c1)OCO2 (stereo not given),5.6

Further structures.
structure,UCH37 DUB inh
O=C(NN=Cc1ccco1)c1cccc(NC(=O)c2cccc(Cl)c2)c1,1.4
CC(=NNC(=O)c1cc(-c2ccc(O)cc2)nc2ccccc12)c1cccnc1,-3.4
CCCCCCC(=O)NN=C(C)Cc1ccccc1,2.7
NC(=O)NN=Cc1ccc(-c2ccc([N+](=O)[O-])cc2)o1,11
Cc1ncc(CO)c(C=NNC(=O)c2cccc(S(=O)(=O)N3CCCC3)c2)c1O,-78
O=C(NN=Cc1ccc(O)cc1)c1cncc(Br)c1,7.0
COc1cc(C=NNc2nc3ccccc3s2)ccc1O,-1.7
Cn1c(N=Cc2c(O)ccc3ccccc23)nc2ccccc21,-1.8
CC(=NNC(=O)C1CC1)c1ccccc1Br,5.9
C[n+]1cccc(CNC(=O)C=NO)c1,-1.5
Cc1[nH]c2ccccc2c1C=NNC(=O)C1CC1(c1ccccc1)c1ccccc1 (stereo not given),-4.7
COc1ccccc1C=NNC(=O)c1cccc(OC(F)(F)C(F)F)c1,-1.7

(continued)
structure,UCH37 DUB inh
O=C(O)CCC(=NNC(=O)c1ccc(-c2ccccc2)cc1)c1ccccc1,3.8
Cc1ccsc1C=Nn1c(-c2cccnc2)n[nH]c1=S,3.6
CC(=NNC(=O)Cn1nc(C)cc1C)c1ccc([N+](=O)[O-])cc1,2.0
NS(=O)(=O)c1ccc(NN=Cc2ccc(O)c(O)c2O)c([N+](=O)[O-])c1,10
Nc1cc(C(=O)NN=Cc2cccc([N+](=O)[O-])c2)n[nH]c1=O,-0.4
COc1cccc(C2C(C(=O)OC(C)C)=C(C)N=c3sc(=Cc4ccc(C(=O)O)cc4)c(=O)n32)c1 (stereo not given),3.2
COc1cc(C=NNc2ccc(Cl)cc2)ccc1OC(=O)c1cccs1,4.6
Fc1ccccc1C=NN1CCN(Cc2ccccc2Cl)CC1,3.7
Cc1ccc(SCCC(=O)NN=Cc2ccncc2)cc1,2.5
C=CCn1cnc2c(c1=O)c1nc3ccccc3nc1n2N=Cc1cccc(OC)c1OC,-14
CC1=C(C(=O)OC(C)C)C(c2ccc(Cl)cc2)n2c(sc(=Cc3ccc(OCC(=O)O)cc3)c2=O)=N1 (stereo not given),-4.5
O=C(CNC(=O)c1ccccc1Cl)NN=Cc1ccc([N+](=O)[O-])s1,6.7

Retrieved by structure from the list above:
structure,UCH37 DUB inh
CC(=NNC(=O)Cn1nc(C)cc1C)c1ccc([N+](=O)[O-])cc1,2.0
Cc1ccc(SCCC(=O)NN=Cc2ccncc2)cc1,2.5
O=C(CNC(=O)c1ccccc1Cl)NN=Cc1ccc([N+](=O)[O-])s1,6.7
NS(=O)(=O)c1ccc(NN=Cc2ccc(O)c(O)c2O)c([N+](=O)[O-])c1,10

Continuation:
structure,UCH37 DUB inh
Cc1cc(=O)[nH]c(NN=Cc2ccc([N+](=O)[O-])cc2)n1,2.1
CCOC(=O)c1ccccc1OCc1cc(C=NNC(=O)c2cccnc2)ccc1OC,-2.2
Cc1nc2ccccc2c(=O)n1N=Cc1ccc(OC(F)F)cc1,2.4
NC(=S)NN=Cc1ccccc1OCCSc1ccc(Cl)cc1,3.6
CSc1ccc(C=NNC(=O)CN2CCN(Cc3ccc(Cl)cc3)CC2)cc1,1.9
CC1Cc2ccccc2N1C(=O)CON=Cc1ccccc1OC(F)F (stereo not given),1.1
CCn1ncc(C=NO)c1C,1.5
Cc1nnc(NN=Cc2ccc([N+](=O)[O-])cc2)n1N,13
CCCOc1ccc(-c2c(C(=O)NN=Cc3ccccc3)nnn2-c2nonc2N)cc1,5.9
C(=NNc1nc2ccccc2s1)c1ccco1,4.1
COc1ccc(C(C)=NNC(=O)CNC(=O)Cc2ccccc2)c(OC)c1,0.8
Cc1ccc(S(=O)(=O)N(C)C(=NS(=O)(=O)c2ccccc2)c2ccccc2)cc1,5.7

Filtered by structure: the compounds so far with a COOH group (five)
structure,UCH37 DUB inh
O=C(O)c1cc(NN=Cc2cccc3ccccc23)ccc1Cl,0.2
Cc1c(C(=O)O)cccc1-n1c(C)cc(C=NNc2ccc([N+](=O)[O-])cn2)c1C,15
O=C(O)CCC(=NNC(=O)c1ccc(-c2ccccc2)cc1)c1ccccc1,3.8
COc1cccc(C2C(C(=O)OC(C)C)=C(C)N=c3sc(=Cc4ccc(C(=O)O)cc4)c(=O)n32)c1 (stereo not given),3.2
CC1=C(C(=O)OC(C)C)C(c2ccc(Cl)cc2)n2c(sc(=Cc3ccc(OCC(=O)O)cc3)c2=O)=N1 (stereo not given),-4.5

The results go on.
structure,UCH37 DUB inh
O=C1NC2(CCCCC2)C(=O)N1N=Cc1ccccc1Br,4.8
CCOC(=O)c1c(CC(C)C)csc1N=CC1=C(O)CCCC1=O,-26
Cn1cccc1C=NNC(=O)C1COc2ccc(C(C)(C)C)cc2O1 (stereo not given),3.4
O=C(CNC(=O)c1ccccc1)NN=Cc1cn[nH]c1-c1ccccc1,5.8
CCn1c(SCC(=O)NN=C/C=C/c2ccco2)nnc1-c1ccccc1,7.2
COc1cc(C=NNC(=S)Nc2cccc(Cl)c2C)ccc1OCC(=O)N1CC(C)OC(C)C1 (stereo not given),4.7
COc1cccc(C=NNc2ccc([N+](=O)[O-])cc2)c1O,2.6
CC(=NOC(=O)c1ccc(C)cc1)c1sc(C)nc1C,4.0
CCn1c2ccccc2c2cc(C=NNC(=O)c3ccncc3)ccc21,-7.2
CN(N=Cc1cc(Cl)ccc1O)C1=NS(=O)(=O)c2ccccc21,-25
COc1ccc(CC(=O)Nc2cccc(C(C)=NNC(=O)c3cccc([N+](=O)[O-])c3)c2)cc1,2.2
Cc1[nH]c2ccccc2c1C=NNC(=O)c1cccc(Br)c1,-8.5

(list continues)
Structure	UCH37 DUB inh
CCC(=O)N(C)CCc1cc2c(c(OC)c1C=NNC(=O)c1ccccc1O)OCO2	-2.8
Nc1nonc1-n1nnc(C(=O)NN=Cc2ccc(Cl)cc2)c1-c1ccc2c(c1)OCO2	0.8
NC(=O)C(=O)NN=C1CCc2ccccc21	0.8
CSc1nncc(C(C)=NNc2ccccc2C)n1	7.6
CC(C)(C)c1cccc(C=NO)c1O	3.3
CC(=NNC(=O)c1cc(C2CC2)nc2ccccc12)c1ccc(C)s1	-41
CCc1n[nH]c(=S)n1N=Cc1cc(Br)c(OC)cc1OC	7.8
O=C(CC(=O)NN=Cc1c(Cl)cccc1Cl)NCc1cccnc1	1.3
O=C(NN=Cc1cn(-c2ccccc2)nc1-c1ccc(F)cc1)c1ccc(Br)o1	-5.4
CC(=NNC(=O)C(N)=O)c1cccc([N+](=O)[O-])c1	3.7
Cc1ccc(Cn2cc(C=NNC(=O)Cc3nnc(NC(=O)c4ccc(C)cc4)s3)c3ccccc32)cc1	1.0
COc1ccc(OCC(=O)NN=Cc2ccsc2)cc1	-3.7
COc1cc(C=NNC(=O)CCN2CCCCC2)ccc1O	-7.4
O=C(COc1ccccc1)NCC(=O)NN=Cc1ccc(Br)cc1	4.9
C[N+]1(CCCCCCC(=O)C=NO)CCCCCC1	-1.5
CSc1nncn1N=Cc1ccc([N+](=O)[O-])cc1	5.9
COc1cc(C=NNC(=S)Nc2cccc(C(=O)O)c2)ccc1O	10
Cc1ccc(-c2ccc(C=NN3C(=O)C4C5C=CC(C6CC56)C4C3=O)o2)c([N+](=O)[O-])c1 (stereo not given)	4.9
CCOC(=O)c1c(NC(=O)C(=O)NN=Cc2ccccc2O)sc2c1CCCCC2	-81
CN1CCN(C=Nc2sc3c(c2C#N)CCCCC3)CC1	-1.6
Cc1ccc(N2CCN(N=Cc3c(C)nn(-c4ccccc4)c3Cl)CC2)cc1	2.0
O=[N+]([O-])C(N=Nc1ccccc1)=NNc1ccccc1	5.2
COc1ccc(C=NOCC(=O)NCC(C)C)c(OC)c1	0.6
CCOC(=O)COc1c(C=NOC)cc(Cl)cc1OC	-1.5
C=C(C)CNC(=S)NN=CC1=CCC2CC1C2(C)C (stereo not given)	4.1
CCC[C@@H]1C[C@@H](C(=O)N[C@@H]([C@H]2O[C@H](SC)[C@H](O)[C@@H](O)[C@@H]2O)[C@@H](C)O)N(C)C1	2.3
CC1=NNC(=O)C1CCC(=O)NN=Cc1ccc(Cl)c(Cl)c1 (stereo not given)	7.2
Cn1cccc1C=NN1CCN(Cc2ccccc2)CC1	3.3
O=C(CC1=NNC(=O)C1)NN=Cc1ccccc1[N+](=O)[O-]	3.7
Cc1ccnn1CC(=O)NN=Cc1cn[nH]c1-c1ccc(F)cc1	6.2

New compounds follow.
Structure	UCH37 DUB inh
CC(C)NC(=S)NN=C1CCCCc2ccccc21	2.1
COc1ccc(OC)c(C=NNc2nncn2N=Cc2cc(OC)ccc2OC)c1	-5.1
CCN(CC)c1ccc(C=NNC(=O)c2cccc(S(=O)(=O)Nc3ccccc3OC)c2)cc1	-49
Cc1ccc(-c2n[nH]c(=S)n2N=Cc2ccco2)cc1	5.9
Cc1oc(N=Cc2ccc(F)cc2)c(C#N)c1C	-0.6
CCn1c(O)c(C=NN=Cc2ccc(OC)cc2)c2cc(C3=NNC(=O)CC3)ccc21	8.1
O=C(NC(=NO)c1ccccc1)Nc1ccc(Cl)cc1	1.3
CCOC(=O)C1=C(C)N=c2sc(=C3C(=O)Nc4ccccc43)c(=O)n2C1c1ccc(C)cc1 (stereo not given)	6.0
O=C(O)c1cccc(NC(=S)NN=Cc2ccccn2)c1	7.1
O=c1c(C=NOCc2ccc(Cl)cc2Cl)c[nH]n1-c1cccc(Cl)n1	2.9
Cc1ccc(-c2csc(NN=Cc3ccco3)n2)c(C)c1	2.9
COc1ccc(-c2[nH]ncc2C=NNC(=O)c2ccc(C(C)(C)C)cc2)cc1OC	1.7
CN(C)S(=O)(=O)N(CC(=O)Nc1ccccc1C(F)(F)F)c1ccccc1	-7.6
CC(=NN=C(N)SC1CC(=O)N(c2ccc(Cl)cc2)C1=O)c1cccs1 (stereo not given)	5.7
O=C(CNC(=O)c1cccc(Br)c1)NN=Cc1cn[nH]c1-c1ccccc1	3.7
Cc1cc(C=Nn2cnnc2)c(O)c([N+](=O)[O-])c1	13
COc1ccc(C=c2sc3nc(=O)c(C)nn3c2=O)c(OC)c1	1.5
Fc1ccccc1NC(=S)NN=Cc1ccccc1Br	3.5
O=C(NN=Cc1cc(Br)c(Br)s1)c1ccncc1	3.6
Cc1nn(C)cc1C=NNC(=O)c1ccco1	8.7
Cc1nn(C)cc1C=NNC(=S)Nc1ccccc1	2.1
O=C(NN=Cc1cc([N+](=O)[O-])ccc1O)c1ccncc1	13
C=CCOc1c(Br)cc(C=NNC(N)=O)cc1OC	-2.8
C=CCn1c(COc2ccc(Cl)cc2)nnc1SCC(=O)NN=Cc1ccccc1	0.0
S=c1[nH]nc(C2CCCCC2)n1N=Cc1ccccc1Br	2.8
Cc1nnc(C)n1N=Cc1ccc(-c2ccccc2Cl)o1	9.1
Cc1ccsc1C=NNC(=O)c1nnn(-c2nonc2N)c1CSc1ccccc1	-23
O=C(NN=Cc1cccnc1)c1ccccc1Br	5.8
CCOC(=O)c1ccc(-c2ccc(C=NNC(=O)CN(c3ccccc3Br)S(C)(=O)=O)o2)cc1	-162
COc1ccc(C(=O)ON=C(N)Cc2ccc(Cl)cc2)cc1OC	-0.8

Next section
Structure	UCH37 DUB inh
Cc1ccc(C=NN2CCN(Cc3ccc(C)cc3)CC2)cc1	0.4
O=C(Cn1cc(C=NO)c2ccccc21)N1CCOCC1	2.6
Cc1ccc(C=NNC(=O)c2cc(-c3ccc(C)o3)[nH]n2)cc1	1.7
CON=Cc1ccc(N2CCN(C(=O)c3ccc(C)cc3)CC2)c([N+](=O)[O-])c1	4.9
C(=NN1CCN(c2ccccn2)CC1)c1cccc2ccccc12	4.6
CCN1CC(=NS(=O)(=O)N=C2CN(CC)C(=O)N2CC)N(CC)C1=O	1.6
O=C(NN=Cc1ccc([N+](=O)[O-])s1)C1COc2ccccc2O1 (stereo not given)	3.7
COC(=O)c1nn(-c2ccccc2)c(Sc2ccccc2)c1C=NO	0.1
CC(=NO)C(=O)NCCCNCCCN(C)C	0.5
CC1(C)CC(=NNc2ccc([N+](=O)[O-])cc2[N+](=O)[O-])C(C)(C)O1	4.1
Cc1ccc(C=NNC(=O)CN2CCN(Cc3ccccc3Cl)CC2)o1	4.0
COc1cc(C=NNC(=O)C2C3CCCCC32C)cc(Br)c1O (stereo not given)	-2.9
S=C(NCc1ccco1)NN=Cc1ccc(Cl)cc1	0.6

Structures listed so far that have a cyano group:
Structure	UCH37 DUB inh
CN1CCN(C=Nc2sc3c(c2C#N)CCCCC3)CC1	-1.6
Cc1oc(N=Cc2ccc(F)cc2)c(C#N)c1C	-0.6

An excerpt, so the mix of outcomes need not match the whole.
